Bioassay records from PubChem BioAssay.
RanGTP-Impb inh: disruptors of Ran-importin-beta complex formation – biochemical, FRET, CFP-Ran, YFP-importin-beta, homogeneous, primary screen; actives 1.1% (n = 300,000); AID 2216; inhibition, % (concentration not given with the values); cell-free CFP-Ran/YFP-importin-beta FRET ratio;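 active means most replicates above 15%; inconclusive means exactly half above 15%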;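 further: 0% = DMSO wells and 100% = Ran loaded with GDP instead of GTP; wells of about 40 µL received 100 nL stock; the first replicate is given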
Calb FLC: affects C. albicans growth with fluconazole; C. albicans CaCi-2 (fluconazole-resistant clinical isolate) + fluconazole, Alamar Blue growth, 48 h; actives 0.57% (n = 300,000); growth inhibition, % (concentration not given with the values);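 active means most replicates above 75%; inconclusive means exactly half above 75%; inactive means most below 75%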;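 further: all wells also contain fluconazole at 8 µg/ml as a sub-toxic cotreatment; 0% = median of DMSO wells and 100% = median of geldanamycin control wells; wells of about 8 µL received 7.5 nL stock; the first replicate is given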
A1 inh: inhibitors of the anti-apoptotic protein A1, read as caspase activation. caspase activation, % (concentration not given with the values). actives 0.066% (n = 330,000). MEF A1-2A-BIM cells, Caspase-Glo 3/7 luminescence, 3 h; percent of clofoctol response, vehicle zero;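 active means over half of replicate activation scores above 10%, or exactly half above 10 with the replicate mean above 10; inconclusive means replicate mean below 10 yet half the replicates above 10; inactive means over half of replicates below 10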;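 further: wells of about 30 µL received 50 nL stock; many hits fall short of the cut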
B2AR ag: agonists of human beta-2 adrenergic receptor inducing internalization; actives 0.43% (n = 340,000); AID 504454; Am2.2-beta2AR cells, FAP receptor internalization, flow cytometry; reference of the scale not given here; P07550; response, % (no concentration beside the values);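 active means response above a set limit, near 3 SD of response in nonfluorescent compounds, cut at about 42% in these data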;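 further: stock transfer was 100 nL into about 11 µL; a reference agonist was the positive control; negative values mostly stem from fluorescent compounds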
Target sequence (P07550 whole entry, looked up): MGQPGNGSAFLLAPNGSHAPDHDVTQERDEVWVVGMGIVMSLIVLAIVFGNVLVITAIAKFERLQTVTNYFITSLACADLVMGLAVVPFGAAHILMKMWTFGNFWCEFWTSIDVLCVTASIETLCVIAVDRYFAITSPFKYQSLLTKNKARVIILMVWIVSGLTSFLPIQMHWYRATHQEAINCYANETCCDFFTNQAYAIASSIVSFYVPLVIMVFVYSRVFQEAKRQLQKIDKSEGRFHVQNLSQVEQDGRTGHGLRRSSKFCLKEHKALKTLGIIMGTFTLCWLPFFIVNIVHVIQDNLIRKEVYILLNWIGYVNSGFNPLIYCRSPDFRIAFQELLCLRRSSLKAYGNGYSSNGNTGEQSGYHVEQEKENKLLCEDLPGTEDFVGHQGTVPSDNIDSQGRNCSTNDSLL
T cruzi repl: T. cruzi replication inhibition | inhibition, % (test concentration not listed) | actives 1.4% (n = 300,000) | T. cruzi beta-gal in NIH3T3, luminescence, 90 h;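 active means mean inhibition across valid replicates above about 55%, limit read from the data; inconclusive means mean below that limit but half or more replicates reach it; inactive means mean below it, under half of replicates reach it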;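 further: signal also drops with host cell toxicity which is not excluded here; 0% = plate median of DMSO wells and 100% = zero luminescence signal; higher percent means less beta-gal luminescence so fewer parasites; stock transfer was 50 nL into about 50 µL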
LANA-H2A inh: blocks KSHV LANA binding to histone H2A/H2B; inhibition, % (no concentration beside the values); cell-free LANA-H2A/H2B peptide, fluorescence polarization; Q9QR71; actives 0.6% (n = 320,000); in the data active means inhibition mostly above about 10%, no sharp cut-off; inactive means mostly below about 6.7%;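 further: stock transfer was 7.5 nL into about 10 µL; 0% = median of vehicle wells and 100% = median of positive control wells; one replicate is shown; the record names a cut of 25% in any replicate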
Beta cell apopt: blocks beta cell apoptosis; protection from apoptosis, % (no concentration beside the values); actives 0.8% (n = 300,000); INS-1E cytokine-induced death, ATP luminescence, 48 h; percent of positive-control rescue, neutral wells zero;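 active means all replicates at 75% or more, or half of them and the mean; inconclusive means half reach 75% but not the mean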;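 further: 0% = cytokine-treated negative control wells and 100% = positive control rescue; higher means more ATP so stronger rescue from cytokine killing; wells of about 40 µL received 100 nL stock; the first replicate is given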
UCH37 DUB inh: blocks the human deubiquitinase UCH37. Q9Y5K5. purified proteasome/UCH37, Ub-AMC cleavage fluorescence. inhibition, % (test concentration not listed). actives 0.33% (n = 330,000);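 active means mean of two replicates above 20%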;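 further: 0% = compound-free wells with enzyme and 100% = wells lacking proteasome; stock transfer was 100 nL into about 20 µL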
Target sequence (Q9Y5K5 whole entry, looked up): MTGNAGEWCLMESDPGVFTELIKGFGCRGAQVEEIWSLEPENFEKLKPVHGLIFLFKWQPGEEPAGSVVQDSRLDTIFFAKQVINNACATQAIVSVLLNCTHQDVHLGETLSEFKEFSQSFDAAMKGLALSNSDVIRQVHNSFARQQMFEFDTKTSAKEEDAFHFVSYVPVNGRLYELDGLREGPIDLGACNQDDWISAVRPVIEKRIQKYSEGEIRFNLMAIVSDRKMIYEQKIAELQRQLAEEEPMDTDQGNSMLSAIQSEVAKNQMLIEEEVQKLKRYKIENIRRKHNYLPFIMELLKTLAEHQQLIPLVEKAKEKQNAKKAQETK
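Test system – human UCH37 enzyme supplied as purified proteasome complex · Incubation – 30 min preincubation with enzyme, 25 min cleavage at room temperature · Detection – AMC fluorescence from Ub-AMC cleavage, excitation 355 nm, emission 460 nm · Benchmarks – no-proteasome wells (full inhibition) and compound-free wells (no inhibition)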
Numbers without * were called inactive; u = inconclusive; x = no result given.

Results follow in this order: Calb FLC	B2AR ag	T cruzi repl	RanGTP-Impb inh	UCH37 DUB inh	LANA-H2A inh	Beta cell apopt	A1 inh
- Cc1ccc(S(=O)(=O)N2[C@@H](c3ccc(Cl)cc3)C(C(=O)O)=CC[C@H]2c2cccc(C)c2)cc1
    x	2	x	x	-0.5	-5.6	-6	0.1
- Cc1c(NC(=O)COC(=O)/C=C/c2ccccc2Br)c(=O)n(-c2ccccc2)n1C
    x	0	x	x	2.1	x	-4	-0.5
- CCCCC(C(=O)NC(C)(C)C)N(Cc1ccccc1Cl)C(=O)c1snc(C(N)=O)c1N (stereo not given)
    3	7	8	-0.4	-50	x	x	x
- CCN(CC(=O)Nc1ccccc1C(F)(F)F)C(=O)Cn1c(=O)cnc2ccccc21
    9	-4	-1	1.5	-0.1	1.5	-2	-0.3
- C=CCc1cc(Cl)ccc1OC(=O)Nc1cccc(Cl)c1
    -10	3	-7	-4.9	3.7	-2.5	3	1.7
- C/C(O)=C(/C=Nc1ccccc1)C(=O)Nc1ccccc1
    -8	-26	22	2.0	5.0	-3.1	x	1.1
- N#Cc1ccc(C(=O)NCC(c2ccco2)N2CCCCC2)cc1 (stereo not given)
    -19	7	-6	3.1	5.8	7.6	-8	1.3
- Cc1c(Cl)cccc1N=C(N)N=C(N)N
    7	-2	-28	2.5	6.0	3.2	4	0.4
- Cc1ccc(N2C(=O)c3ccccc3NC2c2ccccc2O)cc1 (stereo not given)
    -1	4	3	3.6	-92	2.4	-8	-4.1
- CC(Oc1ccc2ccc(=O)oc2c1)C(=O)NCC1CCC(C(=O)O)CC1 (stereo not given)
    2	0	-7	3.4	-15	-5.3	-17	0.6
- CCOc1ccccc1N1CCN(CC(=O)NC(=O)NCc2ccco2)CC1
    -6	1	4	6.7	1.6	-0.1	-6	0.0
- CCOc1ccc(NC(=O)c2ccc(N3CC4CC(C3)c3cccc(=O)n3C4)c(N)c2)cc1 (stereo not given)
    5	0	17	-0.2	-5.7	3.9	-2	-0.4
- O=c1[nH]cnc2c1C1(CCCC1)Cc1ccccc1-2
    2	-14	-3	-0.2	1.9	0.5	-1	0.8
- CC(C)c1cc(C(=O)N2CCCC(Nc3ccc(F)cc3)C2)n[nH]1 (stereo not given)
    5	-6	-11	0.9	1.7	7.3	4	-0.7
- C=CC[C@H](CC(=O)N(CCO)Cc1ccccc1)C(=O)NC[C@H](OC(=O)[C@@H](CC=C)CC(=O)OC(C)(C)C)c1ccccc1
    x	-14	x	x	0.6	-0.3	-2	0.2
- CCN1CCN(C(c2cc(OC)c(OC)c(OC)c2)c2nnnn2C(C)C)CC1 (stereo not given)
    -10	2	3	3.9	-0.2	2.2	3	0.2
- COC1(OC)N=C(N)C2(C#N)C(c3ccc(C)cc3)C12C#N (stereo not given)
    -12	6	-13	1.2	3.2	-3.6	-5	-0.6
- O=C1N[C@@H](Cc2c[nH]c3ccccc23)COC(=O)[C@H](Cc2ccc(F)cc2)C/C=C\C[C@H]1CC(=O)N(CCO)Cc1ccccc1
    x	-2	x	x	1.8	-3.4	-9	0.5
- CCOc1cc(CN2CCN(c3ncccn3)CC2)ccc1OC
    34	-1	-10	11	1.0	1.8	0	-0.4
- O=C(O)CC(SCc1ccc(C(=O)O)o1)C(=O)O (stereo not given)
    -15	-1	-4	-6.4	0.8	1.9	6	0.3
- COc1ccc(C(=O)n2c(-c3ccco3)nc3ccccc32)cc1
    -2	1	2	1.1	3.0	-0.3	11	-5.0
- COc1ccc(C(=O)Nc2ccnn2C2CCN(CC3CC=CCC3)CC2)cc1 (stereo not given)
    -18	-4	18	0.4	2.2	16*	1	0.0
- COc1cccc(NC(=O)CSc2ccccn2)c1
    1	-5	-11	2.9	4.6	4.7	-3	-0.8
- Cc1ccc(S(=O)(=O)Nc2ccc3c(c2)CC(=O)N([C@H](C)CO)C[C@@H](C)[C@H](CN(C)Cc2ccc(-c4ccccc4)cc2)O3)cc1
    x	11	x	x	1.9	3.2	-9	-0.1
- CCN1C(=O)/C(=C2/Sc3ccccc3N2CC)SC1=S
    8	10	-13	u	4.0	-8.3	x	-0.8
- CN(C)C(=O)Cn1c(SCC(=O)NC2CCCCC2)nc2ccccc21
    -3	3	-9	1.8	2.8	0.5	-3	0.1
- CCn1c(NC(=O)c2ccccc2)nc2ccccc21
    30	-9	-17	-0.6	3.0	0.8	6	-0.7
- N#Cc1ccccc1NC(=S)NC(=O)c1cccnc1
    3	1	-2	4.7	3.2	2.0	-6	0.4
- O=C(NN1C(=O)c2ccccc2NC1c1cccnc1)c1ccccc1 (stereo not given)
    14	-9	11	-0.7	-80	0.0	-4	-0.9
- CCOC(=O)C1=C(C)NC(SC(C)=O)=NC1c1ccc(OC(C)=O)c(OC)c1 (stereo not given)
    -3	10	-9	-0.1	4.9	-1.5	-15	1.5
- Cc1cccc(C(=O)OCC(=O)c2ccc3c(c2)OCO3)c1O
    -10	3	5	-1.0	1.1	-49	x	0.8
- O=C(O)c1cn(Cc2ccccc2)c2ccccc2c1=O
    3	1	3	-0.6	-3.4	x	9	-0.6
- COc1ccccc1N1CCN(Cc2cc(Br)c(O)c3ncccc23)CC1
    88*	24	59*	2.9	-2.6	5.7	102*	-0.4
- O=C1c2[nH]nc(-c3ccccc3O)c2C(c2cccc(Cl)c2)N1CC1CCCO1 (stereo not given)
    36	-8	4	2.1	-1.0	0.5	23	-0.5
- O=C(Cc1ccccc1F)Nc1cc(Cl)ccc1N1CCCC1
    6	6	15	-4.5	1.9	2.3	-4	2.0
- O=C(NCc1ccccc1F)c1cccs1
    2	-1	-2	10	-0.7	-2.0	-1	-0.2
- CCc1nnc(NC(=O)CCC(=O)NCC2CCCO2)s1 (stereo not given)
    -6	-7	-4	2.1	1.2	0.8	1	1.6
- O=C(CSc1nnc(CNC(=O)c2c(F)cccc2Cl)o1)NCc1ccc2c(c1)OCO2
    2	6	1	-0.3	2.4	-1.5	1	0.0
- C=CCn1c(COc2ccc(F)cc2)nnc1SC(C)C(=O)NCC1CCCO1 (stereo not given)
    x	-11	x	x	-0.2	-4.3	-4	2.5
- Cc1ccc(CC(=O)Nc2nncs2)cc1
    -7	2	-5	3.7	-1.0	0.6	-4	1.4
- O=C(CSCc1cnn(-c2ccccc2)c1-n1cccc1)NCC1CCCO1 (stereo not given)
    1	-8	4	4.0	-0.4	0.2	4	0.0
- CC(C)Cc1nnc(NC(=O)c2cc(-c3ccncc3)nc3ccccc23)s1
    -1	4	22	0.0	3.1	1.4	-2	-0.2
- COc1ccc(C(=O)Nc2ccc(N3CCOCC3)cc2)cc1S(=O)(=O)NC1CCCC1
    17	-3	4	2.5	1.8	2.6	-5	0.4
- Cc1ccc(Nc2nc3c(c(=O)[nH]c(=O)n3C)n2Cc2ccc(F)cc2)cc1
    -2	8	8	3.2	3.3	3.1	1	0.5
- COc1cccc(CN(C)C(=O)[C@@H](NC(=O)c2ccc(C)cc2)C(C)C)c1
    x	-9	2	1.8	-1.9	1.0	-3	1.4
- CC1CCN(CC[C@H]2CCCN2S(=O)(=O)c2cccc(O)c2)CC1
    x	6	x	x	5.4	-5.5	5	-0.5
- COc1ccc(OC)c(S(=O)(=O)n2nc(C)cc2C)c1
    -6	3	-6	-3.4	1.2	-0.1	-3	0.2
- C/C(=N\Nc1nc2ccccc2[nH]1)c1ccc(C)o1
    -37	-4	34	1.5	x	1.0	9	-5.5
- Cc1ccc(S(=O)(=O)N[C@@H](Cc2ccccc2)C(=O)N2CCC(C(=O)N[C@H](C(=O)O)C(C)O)CC2)cc1 (stereo not given in full)
    5	-9	-2	-1.5	4.5	-0.9	5	0.4
- CNS(=O)(=O)c1ccc(NCC2COc3ccccc3O2)c([N+](=O)[O-])c1 (stereo not given)
    -7	2	13	-0.1	2.7	1.7	5	1.4
- COC(=O)NCC(c1cccnc1)N1CCN(c2ccccc2F)CC1 (stereo not given)
    1	4	44	4.0	1.0	1.9	1	1.1
- O=C(CCCn1cnc2ccccc2c1=O)Nc1ccccc1F
    -7	-2	-4	u	-1.0	-8.6	3	-1.3
- CCN(CC)CCN(C(=O)c1ccc2c(c1)OCCO2)c1nc2cc3c(cc2s1)OCO3
    -2	-3	35	4.0	5.2	2.3	0	-0.8
- O=C(NN=C1CCCC1)c1ccn[nH]1
    3	-1	2	5.8	0.2	2.5	-11	-0.3
- CC1(C)CCc2cc(-c3ccnc(=S)[nH]3)ccc2O1
    -7	-2	6	-0.7	8.8	3.8	-6	u
- O=C(N/N=C/c1c(Cl)cccc1Cl)c1ccc(F)cc1
    -2	-8	-6	4.1	x	-6.4	-11	-1.2
- C=CCNC(=O)C(C(=O)OCC)C1CCCCC1 (stereo not given)
    1	-10	5	0.6	3.7	0.6	-2	-0.6
- CC(=O)NS(=O)(=O)c1ccc(NC(=O)C2c3ccccc3Oc3ccccc32)cc1
    1	7	-4	-0.6	-0.2	0.2	-3	0.0
- Cn1c(SCC(=O)c2c(N)n(C)c(=O)n(C)c2=O)nnc1-c1ccc(F)cc1
    42	-3	-7	5.6	1.3	7.1	6	-0.2
- COc1cc(OC)cc(C(=O)NNc2nc3cc4c(cc3s2)OCO4)c1
    -7	-7	3	0.7	-0.2	2.7	-2	x

The list continues:
Results follow in this order: Calb FLC	B2AR ag	T cruzi repl	RanGTP-Impb inh	UCH37 DUB inh	LANA-H2A inh	Beta cell apopt	A1 inh
- CCOC(=O)CC(=O)CSc1nnc2c(n1)[nH]c1ccccc12
    8	-6	-8	6.2	11	2.5	x	-0.8
- Cc1nc(CNS(=O)(=O)c2cc(F)ccc2F)cs1
    -3	-1	-21	u	0.0	2.2	-7	-0.8
- COc1ccccc1C(=O)Nc1c(C(=O)N(CCN(C)C)Cc2ccco2)oc2ccccc12
    40	22	40	-1.7	0.1	-2.3	11	0.3
- c1ccc(-n2c(-c3cccs3)nc3nc4ccccc4nc32)cc1
    -1	-5	6	1.7	-369	-7.6	-2	-0.1

As a short view, some entries already given.
Results follow in this order: Calb FLC	B2AR ag	T cruzi repl	RanGTP-Impb inh	UCH37 DUB inh	LANA-H2A inh	Beta cell apopt	A1 inh
- CC(=O)NS(=O)(=O)c1ccc(NC(=O)C2c3ccccc3Oc3ccccc32)cc1
    1	7	-4	-0.6	-0.2	0.2	-3	0.0
- Cn1c(SCC(=O)c2c(N)n(C)c(=O)n(C)c2=O)nnc1-c1ccc(F)cc1
    42	-3	-7	5.6	1.3	7.1	6	-0.2
- COc1cc(OC)cc(C(=O)NNc2nc3cc4c(cc3s2)OCO4)c1
    -7	-7	3	0.7	-0.2	2.7	-2	x
- CCOC(=O)CC(=O)CSc1nnc2c(n1)[nH]c1ccccc12
    8	-6	-8	6.2	11	2.5	x	-0.8
- Cc1nc(CNS(=O)(=O)c2cc(F)ccc2F)cs1
    -3	-1	-21	u	0.0	2.2	-7	-0.8
- COc1ccccc1C(=O)Nc1c(C(=O)N(CCN(C)C)Cc2ccco2)oc2ccccc12
    40	22	40	-1.7	0.1	-2.3	11	0.3
